Compound activity from PubChem.
TRPML1 inh: qHTS for Inhibitors of the Human Mucolipin Transient Receptor Potential 1 (TRPML1) | Mucolipin-1 (Homo sapiens), Q9GZU1 | TRPML1-inducible cells, Ca2+ dye fluorescence, FDSS; stronger effect = lower value; inhibition of EC80 agonist-evoked calcium signal | activity change, negative = inhibition, % (test concentration not listed) | actives 0.02% (n = 390,000); in the data active means activity change below about -50%; inconclusive means about -30% to -50%; inactive means above about -30%;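 also: stimulus is agonist 54-4 at its EC80 concentration; % is scaled to controls: 0 for no effect and ±100 for the full control effect; compound concentration not given in the record; the text of the record puts the active cut at -80%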
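Tet-induced TRPML1-DL cells loaded with Ca8 no-wash calcium dye were read kinetically on FDSS. Compound addition was followed by EC80 agonist 54-4 (4 uM final); inhibition was read over 110 s.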
TRPML1 agonist: qHTS for Agonists of the Human Mucolipin Transient Receptor Potential 1 (TRPML1). Mucolipin-1 (Homo sapiens), Q9GZU1. AID 624414, 2012. TRPML1-expressing cells, Ca2+ dye fluorescence, FDSS; host cell line not named in the record; reference of the full effect not given here. activation, % (test concentration not listed). actives 0.12% (n = 410,000); in the data active = activation above about 50%; inconclusive = about 30% to 50%; inactive = below about 30%; also: 0% is about no effect; the text of the record puts the active cut at 80%
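Kinetic FDSS Ca2+ read in Tet-induced TRPML1-DL cells (ABD Ca8 dye plus quencher, 45-90 min RT loading): baseline, then compound, then 110 s agonist window; EC80 agonist 54-4 at 4uM final added afterwards for a 110 s antagonist window.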
TRPV1 potentiator: HTS Assay for Compounds that Act as Potentiators of the Vanilloid Receptor 1. Transient receptor potential cation channel subfamily V member 1 (Homo sapiens), Q8NER1. TRPV1-expressing cells, Fluo-8 calcium influx, capsaicin EC20 potentiation; host cell line not named in the record; control for the full effect not named in the record. potentiation, % at 8.33 µM. actives 0.02% (n = 320,000). AID 540277, 2011; active means potentiation above 80%; inconclusive means 30% to 80%; inactive means below 30%; also: 0% is about no effect
Target sequence (Q8NER1 whole entry, looked up): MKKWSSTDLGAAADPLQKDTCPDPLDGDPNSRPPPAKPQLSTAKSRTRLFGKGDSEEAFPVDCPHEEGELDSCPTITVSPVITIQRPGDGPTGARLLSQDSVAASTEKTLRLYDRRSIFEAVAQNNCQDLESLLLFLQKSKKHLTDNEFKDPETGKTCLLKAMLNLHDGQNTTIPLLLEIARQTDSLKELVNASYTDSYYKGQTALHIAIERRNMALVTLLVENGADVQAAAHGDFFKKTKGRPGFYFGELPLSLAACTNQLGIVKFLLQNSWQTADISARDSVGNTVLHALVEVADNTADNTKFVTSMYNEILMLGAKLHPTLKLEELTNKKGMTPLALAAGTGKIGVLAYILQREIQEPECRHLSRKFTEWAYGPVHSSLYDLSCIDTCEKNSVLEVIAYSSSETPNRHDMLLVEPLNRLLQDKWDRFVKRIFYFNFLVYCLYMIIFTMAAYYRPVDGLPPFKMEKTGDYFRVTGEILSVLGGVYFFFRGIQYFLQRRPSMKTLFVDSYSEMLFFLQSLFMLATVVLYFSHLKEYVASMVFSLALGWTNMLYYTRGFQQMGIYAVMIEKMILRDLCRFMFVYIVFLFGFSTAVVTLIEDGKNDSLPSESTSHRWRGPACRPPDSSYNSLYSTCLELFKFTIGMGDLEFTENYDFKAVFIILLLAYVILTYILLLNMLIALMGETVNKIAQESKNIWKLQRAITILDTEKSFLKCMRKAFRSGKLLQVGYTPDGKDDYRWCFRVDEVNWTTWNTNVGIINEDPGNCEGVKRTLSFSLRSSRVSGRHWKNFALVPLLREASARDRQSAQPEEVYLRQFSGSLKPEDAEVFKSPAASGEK
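TRPV1-expressing cells were cultured overnight at 35.5C and loaded with Fluo-8 calcium dye for 40 to 90 min at room temperature. After a 10 s baseline, compound was added and calcium influx was read kinetically for 3 min (ex 480/em 520 nm).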
ClpP mod: qHTS Assay for Activators of ClpP; ATP-dependent Clp protease proteolytic subunit (Bacillus subtilis (strain 168)), P80244; purified B. subtilis ClpP, FRET peptide cleavage, 20 min; Potency, µM (doses to about 57.5 µM), without a hit: at the highest dose activity change, negative = active; actives 1.9% (n = 340,000); active = well fitted falling curve with a large enough effect; inconclusive = small, poorly fitted or top-dose-only effect; inactive = no such curve, though single readings can be large or run the other way; also: potency is read from the fitted curve at half-maximal effect; the source files actives as falling curves though it sought activators and does not explain the sign; nearly all actives have a fitted effect of over 65% in size; many hits overshoot -100%
Target sequence (P80244 whole entry, looked up): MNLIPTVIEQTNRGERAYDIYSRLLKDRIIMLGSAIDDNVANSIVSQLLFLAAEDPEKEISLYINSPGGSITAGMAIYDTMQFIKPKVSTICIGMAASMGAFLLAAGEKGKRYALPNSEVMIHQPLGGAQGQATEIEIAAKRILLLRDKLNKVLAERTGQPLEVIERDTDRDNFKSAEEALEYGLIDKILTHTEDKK
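Purified B. subtilis ClpP, 10 microg/mL final in Tris/HCl pH8 with KCl, BSA, glycerol and Tween-20, cleaved an Abz/nitrotyrosine-quenched decapeptide. Fluorescence (ex 320, em 430) was read at 0 and 20 min at room temperature. Delta was normalized to 5.8 microM ADEP and DMSO/no-enzyme controls.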
PINK1 expr mod: A Quantitative High throughput Screen to Identify Chemical Modulators of PINK1 Expression. PINK1 immunofluorescence, high-content cytometry, 24 h. Potency, µM (titrated, usually from 76.6 µM), for the others: top-dose activation (PINK1 increase), most hits filed as activators. actives 0.2% (n = 410,000); active = well fitted activation curve with a large enough effect; inconclusive = small, poorly fitted or top-dose-only effect; inactive = flat fitted curve, though single readings scatter; cell line not stated here;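 also: potency is read from the fitted curve at half-maximal effect; % of control where 0% means no effect; nearly all actives have a fitted effect of over 65% in size; a mitochondrial uncoupler was the plate control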
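Readout is PINK1 immunofluorescence, quantified alongside mitochondrial, cell and nuclear markers by laser-scanning microplate cytometry. Cells from a stable line were exposed to compound titrations (5 concentrations) for 24 hours, with CCCP controls.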
Sfp PPTase inh: qHTS Assay for Inhibitors of Bacillus subtilis Sfp phosphopantetheinyl transferase (PPTase) | 4'-phosphopantetheinyl transferase ffp (Bacillus subtilis), Q9F4F7 | Biochemical Sfp PPTase activity, qHTS | Potency, µM, inactives show max response, negative = inhibition, actives largely listed as inhibitors | actives 3.5% (n = 310,000); active = well fitted inhibition curve with a large enough effect; inconclusive = small, poorly fitted or top-dose-only effect, or another doubt; inactive = no such curve, though single readings can be large or run the other way;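 also: the enzyme is Sfp with the accession as filed and its product quenches rhodamine fluorescence; potency is read from the fitted curve at half-maximal effect; 0% = enzyme reaction without inhibitor and -100% = no enzyme wells; top concentration of the series not given in the record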
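Compounds were incubated with enzyme (final 15 nM) for 15 min at room temperature before substrate addition started the reaction. Fluorescence at 525 nm excitation, 598 nm emission was recorded immediately and after 30 minutes.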
Menin MLL FP FL: qHTS Assay for Inhibitors Targeting the Menin-MLL Interaction in MLL Related Leukemias: Competition With Fluorescein Labeled MLL-derived Peptide; Fluorescence polarization, fluorescein-MLL peptide displacement from menin; FP activity change, % at 61.4 µM; 290,000 tested, under 10 active; inconclusive = falling polarisation curve, or a change in total fluorescence; inactive = total fluorescence flat and polarisation flat or rising; no compound was filed as active; the % refers to the polarisation; negative = inhibition;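 also: % of control where 0% means no effect; inhibitors lower the polarisation; unlabelled MLL peptide was the positive control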
* hit, by the source's call; ? = inconclusive; · = no result given; [ ] = another dose, or the depositor's remark.

SMILES	TRPML1 inh	TRPML1 agonist	TRPV1 potentiator	ClpP mod	PINK1 expr mod	Sfp PPTase inh	Menin MLL FP FL
Nc1c(-c2nc(-c3ccc4c(c3)OCO4)cs2)c2ccccn2c1C(=O)c1ccc(Cl)cc1	-7	1.9	·	1.1%	0.5%	·	·
COc1ccc(/C=N\NC(=O)c2ccc(F)cc2)cc1COc1ccccc1C(N)=O	31	0.8	14	-6.0%	-0.2%	4%	·
Cn1c(=O)c2cc(NC(=O)NCc3ccc(Cl)cc3Cl)ccc2n1Cc1ccc(F)cc1	-3	0.0	·	4.2%	4.7%	·	·
COc1ccccc1CNC(=O)[C@H](C)NC(=O)C1CCN(C(=O)[C@@H](N)Cc2ccccc2)CC1	·	·	4	1.9%	-0.3%	3%	1.1
O=C(Nc1ccccc1C(=O)O)c1cc(S(=O)(=O)Nc2ccccc2)ccc1Cl	3	0.8	-20	·	1.8%	24%	3.5
C/C(=N\NC(=O)c1nnn(-c2nonc2N)c1-c1ccc2c(c1)OCO2)c1ccccc1	-2	0.8	16	-14%	5.3%	4%	·
COCCCNC(=O)C(=O)Nc1c2c(nn1-c1cccc(Cl)c1)CSC2	20	-0.6	·	-3.7%	-0.5%	·	·
CCOC(=O)CC1C(=O)NCCN1S(=O)(=O)c1ccccc1 (configuration not stated)	0	0.3	-8	·	1.6%	12%	-4.2
Cc1ccc(N2C(=O)c3ccccc3C2C(=O)c2ccc(O)cc2O)cc1 (configuration not stated)	28	-0.2	4	·	4.3%	?	7.7
Cc1ccc(C)c(S(=O)(=O)N2CCCOC2CNC(=O)C(=O)NCc2ccncc2)c1 (configuration not stated)	-18	-0.4	-1	-2.3%	1.0%	15%	-2.4
COc1ccccc1C(=O)NCCc1nc2ccccc2n1C	36	1.8	12	-3.6%	1.4%	4%	3.0
O=C(Nc1ccnn1C1CCN(C(=O)CCc2ccc(F)cc2)CC1)C1CCOC1 (configuration not stated)	-4	0.0	-4	-3.0%	0.9%	5%	-1.9
OC(COc1cc(Cl)c(Cl)cc1Cl)CN1CCN(c2ncccn2)CC1 (configuration not stated)	-5	-0.4	29	-23%	3.2%	?	-0.6
N#Cc1ccc(C(=O)NN2C(=O)NC3(CCCCC3)C2=O)cc1	-5	-0.5	3	-4.8%	-1.3%	·	·
CCOc1ccc(C(=O)n2cnnc2N)cc1	12	0.4	-14	·	8.6%	-3%	0.0
Cc1cc(C)cc(N(C(=O)Cn2nnc3ccccc32)C(C(=O)NCc2ccco2)c2ccncc2)c1 (configuration not stated)	16	-0.9	-4	1.6%	8.9%	45µM*	4.5
NS(=O)(=O)c1ccc(CCNC(=O)C2CCCCC2)cc1	-3	-0.7	8	0.5%	16%[38.3 µM]	13%	1.0
O=C(N/N=C\c1ccc(F)cc1)c1ccc(F)cc1	29	-0.8	-22	·	-0.7%	-17%	0.1
COc1ccc(-c2cc3ncc(C(=O)c4cc([N+](=O)[O-])ccc4O)cn3n2)cc1	4	-0.1	·	-0.6%	1.2%	·	·
COc1ccc(C(=O)NCCS(=O)(=O)N2CCc3ccccc3C2)cc1OC	6	-0.3	-3	·	1.3%	·	·
COC(=O)c1cc(NC(=O)CCc2c(C)nc3c4c(C)cc(C)nc4nn3c2C)cc(C(=O)OC)c1	-28	-0.3	·	?	6.6%	·	·
COc1cccc(CCNC(=O)c2cc(COc3c(F)cccc3F)on2)c1	15	0.7	-14	0.4%	0.0%	-7%	-0.2
COC(=O)c1ccc(CNC(=O)c2ccc3c(c2)NC(=O)CS3)cc1	5	0.4	-4	0.6%	3.4%	·	·
COc1ccc(NC(=O)c2ccc(C#N)cc2)cc1NS(=O)(=O)c1ccc(F)cc1	34	1.1	11	-1.6%	-0.3%	-13%	0.4
COc1ccc(C)cc1NC(=O)C(c1ccccc1)N1CCN(CC(=O)NC2CC2)CC1 (configuration not stated)	5	0.0	6	1.5%	4.5%	·	·

The results go on.
SMILES	TRPML1 inh	TRPML1 agonist	TRPV1 potentiator	ClpP mod	PINK1 expr mod	Sfp PPTase inh	Menin MLL FP FL
COc1cc2[nH]c(=O)c(C(=O)NCCCN3CCCCC3)c(O)c2cc1OC	13	0.2	6	3.5µM*	0.7%	13%	2.0
CCOc1ccc(N2C(=O)CC(N3CCOCC3)C2=O)cc1 (configuration not stated)	-5	1.0	-8	-2.2%	-0.5%[38.3 µM]	-2%	-2.0
Cc1ccc(S(=O)(=O)NN=Cc2ccc(N3CCOCC3)cc2)cc1[N+](=O)[O-]	-7	-0.1	·	-1.7%	-0.7%	·	·
CCOc1ccc(NC(=O)CCN2CCN(C)CC2)cc1	-10	0.2	6	-2.3%	2.2%	14%	3.4
COc1cc(/C=N/NC(=O)c2ccc3nc[nH]c3c2)cc(OC)c1OC(C)=O	3	-0.4	·	-2.2%	1.1%	·	·
COc1ccc(S(N)(=O)=O)cc1C(=O)NC1CCCc2ccccc21 (configuration not stated)	-5	0.2	-4	·	2.0%	3%	8.9
O=C(CCN1C(=O)/C(=C/c2ccccc2Cl)SC1=S)NNC(=O)c1ccccc1O	14	1.5	5	·	4.2%	50µM*	12
CCCCCC(=O)Nc1ncc2c(n1)CC(c1cccs1)CC2=O (configuration not stated)	9	1.3	-35	-0.3%	-0.5%	-6%	2.6
COc1ccc(OCC(=O)N/N=C(\C)CC(=O)Nc2ccc(OC)cc2[N+](=O)[O-])cc1	2	-0.5	-3	3.0%	0.1%	18%	-4.9
CN1CCC(N(C)C(=S)NC(=O)c2cc(-c3cccc(Br)c3)nc3ccccc23)CC1	-14	0.9	5	·	0.8%	-19%	1.1
CC1(C)CC(=O)c2cn3nc(C(F)(F)F)nc3nc2C1	-14	-0.3	3	12%	6.4%[38.3 µM]	0%	1.6
CCOC(=O)c1ccc(NC(=O)CCCn2c(=O)c3cccn3c3ccccc32)cc1	-7	1.2	·	-5.3%	-0.7%	·	·
CC(CCc1ccccc1)NC(=O)c1ccc(-n2cncn2)c([N+](=O)[O-])c1 (configuration not stated)	-14	0.7	-2	1.3%	-0.1%	·	·
CCCNC(=O)C(Cc1ccccc1)NS(=O)(=O)c1ccc2c(c1)CCC(=O)N2 (configuration not stated)	27	-0.7	?	0.5%	0.6%	0%	-0.9
CCOc1cc(C(=O)Nc2ccc([N+](=O)[O-])cn2)cc(OCC)c1OCC	-12	-0.8	-2	-2.5%	7.2%	13%	3.7
Cc1ccc(S(=O)(=O)c2nc(S(C)(=O)=O)sc2N(C)Cc2ccccc2)cc1	42	1.4	·	-0.4%	-0.7%	·	·
Cc1ccc(OCC(=O)N2CCN(C(=O)c3cccnc3)CC2)cc1	-20	0.8	-5	-0.9%	0.0%	1%	1.2
OCc1cccc(-c2csc(C(O)(c3ccccc3)C(F)(F)F)n2)c1 (configuration not stated)	·	-1.3	·	1.2%	2.9%	·	·
Cc1c(Cl)cnc(NC(=O)COC(=O)CCc2nc3ccccc3s2)c1Cl	-16	3.6	-7	1.4%	0.2%	6%	8.2
Cc1ccc(S(=O)(=O)c2nc(-c3ccco3)oc2SCC(=O)NCC2CCCO2)cc1 (configuration not stated)	-1	-0.5	-12	-0.2%	-6.6%[38.3 µM]	7%	3.8
COc1ccc(-n2nnnc2SCC(=O)N2CCCC2=O)cc1	-1	-0.1	3	-1.6%	-1.1%	·	·
COc1ccc(OC)c(N(CC(=O)NCC2CCCO2)S(=O)(=O)c2ccccc2)c1 (configuration not stated)	4	0.0	-6	·	0.3%	8%	5.9
Oc1ccccc1Cc1c(O)ccc2ccccc12	28	-0.7	-6	-14%	21%	·	·
Nc1ncnc2c1ncn2[C@@H]1O[C@H](CNC(=O)OC[C@@H](N)Cc2ccccc2)[C@@H](O)[C@H]1O	-7	-0.1	·	0.1%	1.8%	·	·
Cc1ccc(-n2c(SCC(=O)N/N=C/c3ccccc3OCC(=O)O)nc3ccccc3c2=O)cc1	-12	-0.3	-2	·	0.8%	8%	-2.4

Retrieved one by one from the list above (4):
SMILES	TRPML1 inh	TRPML1 agonist	TRPV1 potentiator	ClpP mod	PINK1 expr mod	Sfp PPTase inh	Menin MLL FP FL
Oc1ccccc1Cc1c(O)ccc2ccccc12	28	-0.7	-6	-14%	21%	·	·
COc1ccc(-n2nnnc2SCC(=O)N2CCCC2=O)cc1	-1	-0.1	3	-1.6%	-1.1%	·	·
CCCNC(=O)C(Cc1ccccc1)NS(=O)(=O)c1ccc2c(c1)CCC(=O)N2 (configuration not stated)	27	-0.7	?	0.5%	0.6%	0%	-0.9
CCOC(=O)c1ccc(NC(=O)CCCn2c(=O)c3cccn3c3ccccc32)cc1	-7	1.2	·	-5.3%	-0.7%	·	·

The listing continues.
SMILES	TRPML1 inh	TRPML1 agonist	TRPV1 potentiator	ClpP mod	PINK1 expr mod	Sfp PPTase inh	Menin MLL FP FL
Clc1ccc(CCNc2nc3ccccc3n3nnnc23)cc1	-13	0.0	·	-4.2%	-0.4%	26%	3.0
Cc1ccc(NC(=O)c2cccnc2)cc1S(=O)(=O)N(C)C	1	0.3	-5	·	1.0%	11%	0.8
CCOc1cc(CNCC(C)C)c(Cl)cc1OCC(=O)Nc1ccccc1	-12	10	17	·	1.0%	16%	-4.2
COc1ccc(S(=O)(=O)NCC(c2cccs2)S(=O)(=O)c2ccc(C)cc2)cc1F (configuration not stated)	-19	1.9	·	0.8%	-0.6%	·	·
COc1cc(/C=N/NC(=O)C2CCN(CC(O)COCc3ccccc3)CC2)cc(OC)c1OC (configuration not stated)	9	-0.4	-2	?	0.2%	8%	-4.0
COc1ccc(N(CC(=O)Nc2cc(C)ccc2C)S(=O)(=O)c2c(C)noc2C)cc1	7	-0.9	-1	1.4%	4.9%	8%	·
NS(=O)(=O)c1ccc(CCNCc2cc(Br)ccc2OCc2ccccc2)cc1	-11	0.0	-12	2.8%	-0.5%	-101%	6.3
CCc1cc2c(-c3ccccc3)cc(=O)oc2c(CN2CCOCC2)c1O	-7	-0.4	-7	-4.1%	-0.1%	-21%	12
